# Calb biofilm kill: mixture kills Candida albicans biofilm cells; 120,000 tested, 0.02% active; C. albicans biofilm persisters + clotrimazole, fluorescence viability; primary screen in compound mixtures of four per well; inhibition, % at 7.6 µM; AID 1242;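 active = inhibition above 30.3% in the primary screen of four-compound pools, then above 30% when the compound was retested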;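 note: compounds exposed to preformed 24 h biofilms for 48 h; the number belongs to the whole pool; some results filed as inactive read as strong as hits; inactives centre near 12; 0% = biofilm with clotrimazole alone and 100% = kill control; retested singly at about 60 µM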
#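 Probe or stimulus – Clotrimazole 50 µg/mL co-treatment · System – C. albicans biofilms · Schedule – 24 h biofilm formation, then 48 h compound exposure, 37 °C · Evaluation – percent inhibition of biofilm viability · Technique – 2-h Alamar Blue fluorescence, 535/590 nm excitation/emission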
# * = called active by the depositor.
No.	Molecule	Calb biofilm kill
1	O=C(CN1CCCc2ccccc21)N/N=C/c1ccc(O)cc1O	22.8
2	CC(C)C(NC(=O)c1ccc(F)cc1)C(=O)NCC1CCCO1 (stereo unspecified)	22.1
3	CCOc1c(Nc2ccccc2O)c(=O)c1=O	19.1
4	Cc1nc2c(=O)n(-c3cccc(C(F)(F)F)c3)nc(C)c2s1	12.2
5	N#CC(C#N)=NNc1ccc(S(=O)(=O)N2CCCC2)cc1	21.5
6	Cc1cc(N2CCCC2)nc(SCC(=O)c2ccccc2)n1	5.8
7	NC(=O)C(=O)N/N=C/c1c[nH]c2ccc(Br)cc12	-3.3
8	Cc1cc(C)c2c(N)c(C(=O)c3cccc(Cl)c3)sc2n1	3.1
9	CC(C)OC(=O)C(C)(C)Oc1ccc(C(=O)c2ccc(Cl)cc2)cc1	12.5
10	Cc1cc([N+](=O)[O-])nn1CCCC(=O)N1CCN(c2ccccc2)CC1	9.9
11	Oc1c(C(Nc2nccs2)c2ccc(C(F)(F)F)cc2)ccc2cccnc12 (stereo unspecified)	10.8
12	Cc1cc2n(n1)SC(Nc1cc(Cl)ccc1Cl)N2 (stereo unspecified)	8.7
13	N/C(=N\c1nc(CSc2ccccn2)cc(=O)[nH]1)Nc1ccc(Cl)cc1Cl	20.6
14	COc1ccc(NC(=O)CSc2ccc(NC(C)=O)cc2)cc1S(=O)(=O)N1CCCCC1	15.1
15	Cc1ccc(/C=C/C(=O)c2ccccc(=O)c2O)c(C)c1	15.4
16	Cc1ccc(-c2ccnc3nc(-n4cccc4)nn23)o1	16.8
17	COc1ccc(-c2csc(N=C(N)N)n2)cc1	8.9
18	COC(=O)c1ccc(CNC(=O)COC(=O)C2CC3C=CC2C3)cc1 (stereo unspecified)	4.7
19	CNc1ccccc1C(=O)OCC(=O)c1ccc(F)cc1	6.3
20	COc1cc2[nH]c(=S)nc(NC3CCCC3)c2cc1OC	17.3
21	CCOc1ccc(N2C(=O)CC(NC3CCCCNC3=O)C2=O)cc1 (stereo unspecified)	15.1
22	COC(=O)c1ccc(/C=N/Nc2nc(-c3ccc(Cl)cc3Cl)cs2)cc1	15.0
23	Cn1nnnc1SCC(=O)Nc1nc2ccccc2s1	14.3
24	OCCC1CN(Cc2nc(-c3ccccc3)cs2)CCN1CCc1ccccc1 (stereo unspecified)	13.9
25	COC(=O)c1sc(N2C(=O)C(=O)/C(=C(/O)c3ccccc3)C2c2ccco2)nc1C (stereo unspecified)	10.9
26	C#CCOCCOCCOCCNc1nc(N2CCOCC2)nc(N2CCN(C(=O)Cn3cc(CC(C)O)nn3)CC2)n1 (stereo unspecified)	7.8
27	Cc1ccc(CCNC(=O)CNC(=O)c2cccs2)cc1	13.1
28	Cc1ccc(NC(=O)CN(C)CC(=O)Nc2cccc(F)c2)cc1S(=O)(=O)N1CCCCCC1	-4.5
29	CCC(C(=O)OCC(=O)c1ccc2c(c1)NC(=O)CO2)c1ccccc1 (stereo unspecified)	18.7
30	CCOC(=O)C1(CCCc2ccccc2)CCN(C(=O)CCc2cnccn2)CC1	13.9
31	CCOC(=O)CNC(=O)c1sc(NC(=O)/C=C/c2ccccc2)nc1C	14.9
32	CC(Sc1ccccc1)C(=O)N(CCC#N)Cc1cccnc1 (stereo unspecified)	14.8
33	c1ccc(-c2csc(NC3=NCCCCC3)n2)cc1	16.9
34	OC(c1nnc(-c2ccccc2)o1)c1cccs1 (stereo unspecified)	10.8
35	CCOC(=O)C1CCN(C(=O)c2ccccc2NS(=O)(=O)c2cc(C)ccc2C)CC1	15.6
36	CCOC(=O)/C(=N\Nc1ccccc1Cl)N1CC(C)OC(C)C1 (stereo unspecified)	8.2
37	O=C(NC1CC1)C1=C[C@@H](c2ccc3c(c2)OCO3)C[C@@H](OCCCCO)O1	16.3
38	Cc1ccc(C2NC(=O)NC(O)(C(F)(F)F)C2C(=O)c2ccccc2)o1 (stereo unspecified)	2.1
39	Cn1c(=O)c2c(O)c(C=Nc3ccc(F)cc3)c(=O)n(C)c2n(C)c1=O	21.9
40	CC1CCN(CC(=O)Nc2cccc(Cl)c2)CC1	14.1
41	CCOC(=O)c1ccccc1NC(=S)N1CC(C)CC(C)C1 (stereo unspecified)	27.1
42	Cc1ccc(/C=N/NC(=S)N2CCOCC2)cc1	18.6
43	COc1ccc(Nc2nc(-c3ccc4c(c3)NC(=O)CO4)cs2)cc1	-2.6
44	CCCS(=O)(=O)N1CCN(C2CCC(C)CC2)CC1 (stereo unspecified)	-5.0
45	COc1ccc(-n2c(=O)c3ccccc3n(CC(=O)NCc3ccco3)c2=O)cc1	12.5
46	Cc1cc2nc(CO)[nH]c2cc1C	11.9
47	O=C(CN(Cc1ccccc1)S(=O)(=O)c1ccc(Br)cc1)N/N=C/c1ccccc1C(=O)O	14.9
48	CN(C)/N=C/c1cc(Cl)cc([N+](=O)[O-])c1O	4.3
49	CCOP(=O)(OCC)C(Nc1ccccn1)c1ccccc1 (stereo unspecified)	10.3
50	Cc1cc(C(=O)CSc2nc(N)cc(=O)[nH]2)c(C)n1-c1ccc(OC(F)F)cc1	-1.7
51	CCOc1ccc(CNC(=O)c2ccc(Sc3ccc(C)cc3)c(NC(C)=O)c2)cc1OC	14.7
52	COC(=O)CCCC1=CC2=C(c3ccccc3)C(=O)C(C)(OC(=O)C3CCCC3)C(=O)C2=CN1c1ccc(OC)cc1 (stereo unspecified)	16.4
53	O=C(N/N=C/c1cccc(Cl)c1)C(c1ccncc1)N1CCOCC1 (stereo unspecified)	10.9
54	COc1ccc(CCN(C)CC(=O)Nc2cc(C)nc3ccccc23)cc1OC	14.7
55	CC(C)c1ccc(S(=O)(=O)c2cc3cc(Br)ccc3oc2=O)cc1	9.0
56	CCCNC(=O)c1c(O)c2c([nH]c1=O)CCCC2	-0.4
57	Cn1cc(/C=N/NC(=O)COc2ccccc2[N+](=O)[O-])c2ccccc21	13.0
58	S=C(NCc1ccco1)N/N=C/c1ccccc1Cl	-11.5
59	COc1ccc(Br)cc1S(=O)(=O)NCCCN1CCOCC1	0.0
60	Cc1ccc(CN=c2c([N+](=O)[O-])nn(-c3ccc4c(c3)OCCO4)n2O)cc1	14.3

# Entries from the list above that have bromine, in the order listed:
No.	Molecule	Calb biofilm kill
7	NC(=O)C(=O)N/N=C/c1c[nH]c2ccc(Br)cc12	-3.3
47	O=C(CN(Cc1ccccc1)S(=O)(=O)c1ccc(Br)cc1)N/N=C/c1ccccc1C(=O)O	14.9
55	CC(C)c1ccc(S(=O)(=O)c2cc3cc(Br)ccc3oc2=O)cc1	9.0
59	COc1ccc(Br)cc1S(=O)(=O)NCCCN1CCOCC1	0.0

# The listing continues.
No.	Molecule	Calb biofilm kill
61	C/C(=N\NC(=O)c1ccc(CSc2nncn2C)cc1)c1ccc(Cl)cc1	7.3
62	C/C(=N/NC(=O)CN1CCN(Cc2ccccc2Cl)CC1)c1cccnc1	23.5
63	Cc1ccc(/C=N/c2sc3c(c2C(N)=O)CCCC3)o1	21.1
64	Nc1nc(Nc2ccccc2F)nc(N2CCOCC2)c1[N+](=O)[O-]	27.1
65	CCOc1ccccc1NC(=S)NCCCn1ccnc1	10.6
66	O=C(Nn1cnnc1)c1ccc([N+](=O)[O-])cc1	27.7
67	O=C(CN1CCN(C(c2ccccc2)c2ccccc2)CC1)NCc1ccccc1	-5.4
68	O=C1CCCc2c1[nH]c1ccc(Cl)cc21	9.6
69	CCCCN1C(=O)/C(=C/C=C2\SCCN2C)SC1=S	-8.4
70	CN(Cc1ccccc1)c1c([N+](=O)[O-])c(=O)n(C)c2ccccc12	16.9
71	Cc1ccc(C(=O)c2ccccc2C(=O)OCC(=O)NCCc2ccc(Cl)cc2Cl)cc1	16.3
72	CCOC(=O)c1cnc2nc[nH]n2c1=O	5.5
73	COCCCn1c(C)csc1=Nc1cccnc1	13.9
74	O=C(OCc1ccc(Br)cc1)c1cccc(-c2nnc(-c3ccccc3)o2)c1	11.2
75	Cc1cc(C)nc(SCc2cn3c(C)cc(C)nc3n2)n1	24.4
76	O=C(Nc1nc2ccsc2c(=O)s1)C1CCC1	21.0
77	Cc1cccc(NC(=O)C(=O)NCC2CCCO2)c1 (stereo unspecified)	10.1
78	c1cc(-n2nnc3cnccc32)ccn1	14.2
79	COCc1nnc(NC(=O)c2cc(OC)c(OC)cc2[N+](=O)[O-])s1	15.6
80	CCCc1nnc(SCC(=O)O)n1CC	30.2
81	NC(=O)Nc1ccc(C(=O)OCC(=O)Nc2ccc([N+](=O)[O-])cc2C(F)(F)F)cc1	16.0
82	Cn1cc(C(=O)c2cccc(Cl)c2)cc1/C=N\O	-11.7
83	Cc1ccc(C(=O)Nc2cccc([N+](=O)[O-])c2)cc1S(=O)(=O)Nc1ccc(NC(=O)c2ccccc2)cc1	1.6
84	Fc1ccccc1NC(=S)Nc1ccc(Br)cc1	21.9
85	O=C(Nc1ccc(F)cc1)N1CCc2ccccc2C1	19.2
86	CSCC(=O)N1CCCC(CNC(=O)c2ccccc2Cl)C1 (stereo unspecified)	6.3
87	CC(C)(C)OC(=O)NCCCC[C@H](NC(=O)c1[nH]cnc1C(=O)Nc1ccccc1)C(=O)OC(C)(C)C	7.0
88	CC(=O)Nc1ccc(NC(=O)c2sc3nc4n(c(=O)c3c2C)CCCCC4)cc1	13.3
89	Cc1ccc(S(=O)(=O)NC(=O)NCc2ccc(F)cc2)cc1	11.7
90	CCOC(=O)c1oc2cc(OCC(=O)OC)ccc2c(=O)c1-c1ccc(OC)c(OC)c1	11.6
91	CC(C)COP(=O)(OCC(C)C)C(O)c1ccc(F)cc1 (stereo unspecified)	21.9
92	CCN(CCn1cccn1)Cc1cn[nH]c1-c1ccc(OC)cc1F	7.5
93	C=C1[C@@H](OC(C)=O)CC[C@]2(C)[C@@H]1C[C@@H]1C[C@H](OC(C)=O)C(C)=C([C@@H](OC(C)=O)[C@@H]2OC(C)=O)C1(C)C	15.7
94	O=C(NCC1CCCO1)C(=O)N/N=C/c1ccccc1C(=O)O (stereo unspecified)	23.0
95	COC(=O)CC1C(=O)NCCN1C(=S)Nc1cccc(C(F)(F)F)c1 (stereo unspecified)	25.0
96	O=C(N/N=C/CCc1ccccc1)C1CCCCC1	8.3
97	Cc1cc(C)c(C)c(OCCCN(C)C)c1	8.1
98	CCN(CC)CCCNC(=O)CSc1c2c(nc3cc(Cl)ccc13)CCCC2	23.2
99	Cc1cc(NC(=O)CCCN2C(=O)c3cccc4cccc(c34)C2=O)no1	20.1
100	CC(CCc1ccccc1)NC(=O)c1ccc(NC(=O)c2ccccc2)cc1 (stereo unspecified)	11.2
101	O=C(CNc1n[nH]c(=O)[nH]c1=O)N/N=C/C1CC=CCC1 (stereo unspecified)	17.0
102	COc1ccc(OCc2cc(-c3ccc(Cl)cc3)no2)cc1	6.1
103	S=c1[nH]nc(-c2ccc(Cl)cc2)n1/N=C/c1ccco1	13.1
104	O=C(Nc1csc([N+](=O)[O-])c1)Nc1ccccc1Cl	23.3
105	N#Cc1ccccc1S(=O)c1ccccc1C(=O)Nc1ccccc1 (stereo unspecified)	4.2
106	COc1ccc(OCCOC(=O)c2[nH]c(C)c(C(C)=O)c2C)cc1	6.8
107	Cc1ccc(C(=O)/C=C/c2ccccc2[N+](=O)[O-])cc1	6.4
108	CC(C)NC(=S)N/N=C/c1cccnc1	23.7
109	C=CCOC(=O)C1=C[C@H](c2ccc(Br)cc2)[C@@H](CCCO)[C@H](OCC)O1	20.3
110	C/C(=N\N=C1\NC(=O)C(CC(=O)Nc2ccc(C)c(Cl)c2)S1)C(C)(C)C (stereo unspecified)	2.7
111	CC(=O)Nc1ccc(NC(=O)C2CCCN(C(=O)c3ccc(Cl)cc3)C2)cc1 (stereo unspecified)	11.1
112	O=C(O)c1ccccc1SCc1cn2cc(Br)ccc2n1	12.4
113	Cc1cc(C(=O)CSc2ccc3c(c2)OCCO3)c(C)n1C1CC1	12.5
114	COC(=O)c1sc(-c2ccccc2)cc1NC(=O)c1ccccc1	7.7
115	N#Cc1c2n(c3c(=O)n(CC(=O)c4ccc([N+](=O)[O-])cc4)cnc13)CCCCC2	18.3
116	CCCc1cc(C(=O)NNC(=S)NCC2CCCO2)cs1 (stereo unspecified)	4.2
117	COC(=O)c1sccc1NC(=S)Nc1ccc(OC)cc1	22.7
118	NS(=O)(=O)c1ccc(CCNC(=O)c2ccc3c(c2)OCCO3)cc1	13.3
119	CCOC(=O)NN1C(=O)c2ccccc2NC1c1cccc(O)c1 (stereo unspecified)	13.2
120	O=C(CCN1C(=O)c2ccccc2C1=O)NC(=S)Nc1ccccc1Cl	8.9

# (next part)
No.	Molecule	Calb biofilm kill
121	CCOc1ccc(-c2cn(-c3ccc(OC)cc3)c(SC)n2)cc1	18.1
122	Cc1nc2c([nH]c3ccccc32)c(=O)n1N	10.8
123	O=c1cc(-c2cccnc2)oc2c1ccc1ccccc12	14.6
124	Cc1cccc(C)c1NC(=S)N1CCOCC1	15.8
125	COc1ccc(S(=O)(=O)CCC(=O)Nc2cc(C)ccc2OC)cc1	10.2
126	COc1c(C)cc(C(=O)C2CCCN(Cc3ccc(Oc4ncccn4)cc3)C2)cc1C (stereo unspecified)	13.9
127	COc1ccc(C2CC(c3cccs3)=NN2C(=O)CSc2nc3ccccc3s2)cc1 (stereo unspecified)	17.6
128	O=C(NC1CC1)C1CCN(C2CCN(C(=O)Cc3ccc(F)cc3)CC2)CC1	10.0
129	CCOC(=O)C1(Cc2ccc(OC)cc2)CCN(C(=O)C2CC(=O)N(C3CC3)C2)CC1 (stereo unspecified)	20.6
130	CSc1ccc(C(=O)C2CCCN(C(=O)c3csc(C(C)=O)c3)C2)cc1 (stereo unspecified)	6.3
131	CCOc1ncccc1C(=O)N1CCN(C(=O)c2ccccc2)CC1	8.5
132	O=[N+]([O-])/C=C\c1ccc(N2CCCC2)c(F)c1	12.6
133	CCn1c(C(C)NC(=O)c2ccccc2C)n[nH]c1=S (stereo unspecified)	18.0

# Source: PubChem (PCMD)

# Some of the compounds tested. The share of hits here may be higher or lower than overall.
